Screening results from PubChem BioAssay.
PrP UTR inh = suppresses PrP 5' UTR mRNA reporter expression. inhibition, % (concentration not given with the values). cell-based PrP 5' UTR mRNA reporter, plate reader. 340,000 tested, 0.35% active;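 active = every replicate at 50% or more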;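 also: 0 = median of the neutral control wells; tested in H4 reporter cells; numbers are from one replicate; inactives centre near -14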
Sa ugtP lethal = growth inhibition of S. aureus ugtP deletion strain; S. aureus RN4220 ugtP deletion, OD600 growth, 16 h; some inactives read as strong as hits; growth inhibition, % (concentration not given with the values); 330,000 tested, 0.54% active;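 active = z-score under -3 and OD600 up to 0.15 on both plates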;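 also: plate controls were untreated wells for no effect and antibiotic for full effect; wells of about 80 µL received 100 nL stock; the first replicate is given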
BJeLR lethal = kills HRASV12-expressing BJeLR cells. BJeLR (HRASV12) viability, CellTiter-Glo ATP luminescence, 48 h; reference of the scale not given here. inhibition, % (no concentration beside the values). 300,000 tested, 0.17% active. AID 1554;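 active = replicate mean above 50%; inconclusive = above 50% but judged a plate artefact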;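 also: 50 nL library stock added to about 25 µL; numbers are from one replicate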
Bead autofluor = counter-screen for toxin protease inhibitors: compound fluorescence. compound autofluorescence counterscreen, microsphere flow cytometry; stronger effect = higher value. fluorescence intensity (concentration not given with the values). 360,000 tested, 3.1% active;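 active = at least 3 SD above the mean of all compounds, about 16000 in these data; inconclusive = too few beads counted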;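 also: 100 nL of 1 mM stock went into each well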
Mtb hypoxia inh = reduces hypoxia-regulated biosensor signal in M. tuberculosis; M. tuberculosis hypoxia-regulated fluorescent reporter, fluorescence; fluorescence inhibition, % (test concentration not listed); AID 1159583; 300,000 tested, 0.1% active;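 active = 35 to 45% if threefold the growth effect, above 45% if 1.5-fold the growth effect; inactive = the rest, general growth blockers included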;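 also: wells of about 50 µL received 100 nL stock; 0% = vehicle wells and 100% = reference inhibitor wells; whole bacteria with a GFP reporter of the hypoxia response; strong numbers were not always called active; many hits fall short of the cut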
Sa RN4220 lethal = kills Staphylococcus aureus RN4220 | AID 1259311 | S. aureus RN4220 growth, OD600, 16 h | 330,000 tested, 0.33% active | inhibition, % (no concentration beside the values);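 active = z-score of -3 or lower and OD600 up to 0.18 on both plates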;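 also: plate controls were untreated cells for no effect and reference antibiotic for full effect; stock transfer was 100 nL into about 80 µL; one replicate is shown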
Mtb hypoxia inh growth = second read-out of Mtb hypoxia inh, no call of its own (marks repeat the call); growth inhibition, %; measured here: M. tuberculosis growth (absorbance);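 0% = vehicle and 100% = reference antibiotic; read after six days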
* hit, by the source's call; ? = inconclusive; . = not tested or not shown.

entry	canonical_smiles	PrP UTR inh	Sa ugtP lethal	BJeLR lethal	Bead autofluor
1	Cc1cccc(NC(=O)CCNC(=O)c2ccc(Br)cc2)c1C	1.1	18.3	-6.6	2976
2	CNC(=O)NC(=S)NC(=O)c1cccc(Cl)c1	-20.4	6.3	3.4	?
3	COc1cc2c(C(=O)N3CCN(C4CCCCC4)CC3)cn(CC(C)C)c(=O)c2cc1OC	.	9.4	-0.9	.
4	O=C(NCCCNC(=O)c1cc(Cl)ccc1Cl)c1cnccn1	-17.7	5.7	5.2	3918
5	Cc1cc2nccc(-c3ccc(Cl)c([N+](=O)[O-])c3)n2n1	-7.4	5.1	0.2	3424
6	COc1cccc(CN2C(=O)[C@H]3Cc4c([nH]c5ccccc45)C(C)(C)N3C2=O)c1	-8.0	.	-0.5	3981
7	CCNC(=S)NCCN1CCCCC1	-7.5	3.5	-5.2	3070
8	CCOc1cc(C(=S)N2CCOCC2)ccc1OS(=O)(=O)c1ccccc1	-19.4	7.1	-1.3	2035
9	O=C(Nc1ccn(-c2ccccc2)n1)c1ccc(S(=O)(=O)N2CCCCCC2)cc1	-5.5	1.1	1.6	9188
10	S=c1[nH]nc(C2CCCCC2)n1N=Cc1ccc(Cl)cc1	.	-8.8	.	.
11	C/C(C=NNC(=O)c1cccs1)=C\c1ccco1	.	-4.6	.	.
12	Cc1ccc(Cl)cc1N1CCN(C(=O)C2CCN(S(=O)(=O)c3c(C)nn(C)c3C)CC2)CC1	0.1	4.0	-5.5	4269
13	N#Cc1cccnc1N1CCN(C(=O)c2cccc3c2C(=O)c2ccc(Cl)cc2S3(=O)=O)CC1	-9.8	-9.2	.	4104
14	CCC1(c2ccccc2)NC(=O)N(CC(=O)NNC(=O)c2ccoc2C)C1=O (configuration not stated)	-23.8	7.2	11.5	5723
15	CC(C)C[C@H](NC(=O)c1[nH]cnc1C(=O)N[C@@H](C)C(=O)OC(C)(C)C)C(=O)OCc1ccccc1	-11.9	.	1.7	3399

entry	Mtb hypoxia inh	Mtb hypoxia inh growth	Sa RN4220 lethal
1	-10.2	-11.6	6.3
2	1.3	3.4	5.3
3	6.6	17.3	-1.9
4	-6.0	7.6	-0.7
5	12.8	7.4	2.0
6	.	.	.
7	9.6	5.5	3.7
8	14.8	6.5	16.3
9	4.9	1.8	-0.4
10	-6.8	-9.2	4.2
11	2.4	-6.4	4.8
12	4.0	10.5	2.1
13	-7.1	8.1	8.5
14	-2.9	-1.0	2.8
15	.	.	.

Additional structures follow:
entry	canonical_smiles	PrP UTR inh	Sa ugtP lethal	BJeLR lethal	Bead autofluor
16	CC1Cc2cc(C(O)=C3C(=O)C(=O)N(CCN4CCOCC4)C3c3cccc(Cl)c3)ccc2O1 (configuration not stated)	.	2.6	.	.
17	Cc1ccccc1-c1nnn(CC(N)=NO)n1	.	-5.3	.	.
18	COc1ccc(N2CCN(C(=O)c3cc(-c4ccc(F)cc4)[nH]c3C)CC2)cc1	-23.1	6.5	-0.2	3655
19	O=C(NC(=S)Nc1ccccc1Br)c1ccc2c(c1)OCO2	-73.0	22.9	1.8	5817
20	Nc1ccccc1-c1nc2ccccc2[nH]1	-37.7	14.2	1.2	22286*
21	CN(C)C(=O)CSc1ccccc1C(=O)OCC(=O)NC1CC1	-22.1	1.7	.	8785
22	COCCNC(=O)c1ccccc1NC(=O)CCSc1ccccc1	-15.9	4.8	5.3	3228
23	Cc1ccc(S(=O)(=O)N(CC(=O)NCc2cccnc2)c2ccc(F)cc2)cc1	-15.6	8.0	4.9	4176
24	Cc1ccc(-n2c(=O)cc(NCc3cccnc3)[nH]c2=O)cc1	-10.7	-1.2	-2.3	21543*
25	FC(F)(F)c1cccc(-n2cc(-c3ccccc3)[nH]c2=S)c1	-16.6	16.9	-4.6	2959
26	Cc1cc(C)cc(NC(=O)N2CCN(C/C=C/c3ccccc3)CC2)c1	-1.9	-1.4	1.6	2624
27	COc1cc(C)nc(Oc2ccc(=O)[nH]n2)n1	-41.8	-4.8	6.9	3764
28	O=C(OCC(=O)c1ccc(S(=O)(=O)N2CCCC2)cc1)C1=COCCO1	-7.1	0.1	12.4	10180
29	CCOC(=O)c1c(C)n(-c2ccc(C)cc2)c2ccc(OCC(O)CNCCCO)cc12 (configuration not stated)	-21.9	-30.1	.	5428
30	O=C(NCc1nc2ccccc2[nH]1)C1=C[C@H](c2ccc(C(F)(F)F)cc2)C[C@H](OCCCCO)O1	-1.9	.	-4.8	3920

entry	Mtb hypoxia inh	Mtb hypoxia inh growth	Sa RN4220 lethal
16	7.4	3.2	6.0
17	6.3	1.2	4.4
18	2.5	2.3	-0.8
19	7.8	7.9	4.7
20	9.8	18.8	8.7
21	-2.8	0.1	7.1
22	8.1	8.4	-0.1
23	3.7	-7.8	2.2
24	4.5	4.6	4.8
25	7.8	12.1	3.4
26	10.4	-1.9	0.5
27	.	.	1.6
28	-5.2	0.1	1.1
29	22.2	13.8	-3.0
30	.	.	.

Whole records, looked up by structure. Screens in order: PrP UTR inh | Sa ugtP lethal | BJeLR lethal | Bead autofluor | Mtb hypoxia inh | Mtb hypoxia inh growth | Sa RN4220 lethal
Record of O=C(NCCCNC(=O)c1cc(Cl)ccc1Cl)c1cnccn1 = -17.7 | 5.7 | 5.2 | 3918 | -6.0 | 7.6 | -0.7
Record of O=C(NC(=S)Nc1ccccc1Br)c1ccc2c(c1)OCO2 = -73.0 | 22.9 | 1.8 | 5817 | 7.8 | 7.9 | 4.7

Reprinted, compounds 16 to 20
entry	canonical_smiles	PrP UTR inh	Sa ugtP lethal	BJeLR lethal	Bead autofluor
16	CC1Cc2cc(C(O)=C3C(=O)C(=O)N(CCN4CCOCC4)C3c3cccc(Cl)c3)ccc2O1 (configuration not stated)	.	2.6	.	.
17	Cc1ccccc1-c1nnn(CC(N)=NO)n1	.	-5.3	.	.
18	COc1ccc(N2CCN(C(=O)c3cc(-c4ccc(F)cc4)[nH]c3C)CC2)cc1	-23.1	6.5	-0.2	3655
19	O=C(NC(=S)Nc1ccccc1Br)c1ccc2c(c1)OCO2	-73.0	22.9	1.8	5817
20	Nc1ccccc1-c1nc2ccccc2[nH]1	-37.7	14.2	1.2	22286*

entry	Mtb hypoxia inh	Mtb hypoxia inh growth	Sa RN4220 lethal
16	7.4	3.2	6.0
17	6.3	1.2	4.4
18	2.5	2.3	-0.8
19	7.8	7.9	4.7
20	9.8	18.8	8.7

Other results follow:
entry	canonical_smiles	PrP UTR inh	Sa ugtP lethal	BJeLR lethal	Bead autofluor
31	O=C(c1ccc2ccccc2c1)C1CCCN(S(=O)(=O)c2cccnc2)C1 (configuration not stated)	-18.2	-2.5	4.7	3586
32	Cc1cccc(-c2nn(-c3ccccc3)cc2C(=O)NCC(c2cccs2)N2CCOCC2)c1 (configuration not stated)	-19.6	6.4	-11.4	5774
33	CCOc1ccc2ccccc2c1C=NNC(=O)CNC(=O)C(c1ccccc1)c1ccccc1	.	22.4	.	.
34	O=C(CCC(=O)c1ccccc1)NCc1ccccc1	-12.6	7.1	1.1	?
35	FC(F)Oc1ccccc1NC(=S)NCc1ccco1	-22.9	6.0	-7.4	23284*
36	CC1(C)C2([N+](=O)[O-])CN3CC1([N+](=O)[O-])CN(C2)C3c1cccnc1 (configuration not stated)	-12.3	1.7	11.0	.
37	COc1ccc(NC(=O)CCCCCN2C(=O)[C@@H]3Cc4ccccc4CN3C2=O)cc1Cl	-5.2	0.1	6.6	5128
38	COC(=O)NCC(c1ccc2c(c1)OCO2)N1CCN(c2ccc(OC)cc2)CC1 (configuration not stated)	-2.0	2.6	-7.7	5904
39	O=C(C[n+]1cn(C(F)F)c2ccccc21)c1ccc(Br)cc1	-12.6	2.5	13.0	4482
40	CC(=O)c1cccc(NC(=O)CCc2nnc3ccc(NCc4ccc5c(c4)OCO5)nn23)c1	-13.7	-0.1	-0.9	5774
41	CCCCOC(=O)C(C)Oc1ccc(=O)n(-c2ccccc2)n1 (configuration not stated)	0.6	-4.5	-2.1	5072
42	CCOC(=O)Cn1c(=N)n(CCOc2ccc(Br)cc2)c2ccccc21	-6.5	-9.7	-9.2	?
43	CCOC(=O)c1c(C)oc2c1c(C=NCC1CCCO1)c(O)c1ccccc12 (configuration not stated)	-13.0	.	-1.3	3502
44	CC(Oc1ccccc1F)C(=O)Nc1ccc2ccccc2c1 (configuration not stated)	-20.0	-6.0	16.0	4001
45	Cc1ccc(N2CC(=O)N(CC(=O)O)C2=O)cc1	-20.3	4.3	-0.9	4760

entry	Mtb hypoxia inh	Mtb hypoxia inh growth	Sa RN4220 lethal
31	-6.3	3.9	2.7
32	2.8	6.9	2.9
33	0.7	8.8	-0.8
34	12.9	8.5	15.2
35	-0.8	6.4	5.6
36	-2.9	4.0	4.3
37	-18.0	7.6	-2.3
38	-4.7	5.2	1.9
39	-7.5	0.7	2.8
40	-13.2	-20.4	-0.2
41	0.6	5.7	-2.0
42	-0.7	9.0	4.9
43	.	.	.
44	-82.6	-10.9	5.8
45	-6.6	6.4	3.2

Continuation.
entry	canonical_smiles	PrP UTR inh	Sa ugtP lethal	BJeLR lethal	Bead autofluor
46	Cc1cc(C(=O)O)cc(S(=O)(=O)Nc2ccccc2C(=O)NC(C)c2ccccc2)c1C (configuration not stated)	-24.7	6.3	1.6	6496
47	Cc1[nH]c(=O)[nH]c(=O)c1C=NNC(=O)[C@@H](N)CC(C)C	.	6.3	.	.
48	CC1CN(Cc2ccccc2)c2nc3c(c(=O)n(CC(=O)O)c(=O)n3C)n2C1 (configuration not stated)	4.2	5.4	-2.1	.
49	CC(=O)Nc1ccc(NC(=O)CSc2nc(=O)n3cccc(C)c3n2)cc1	-16.7	8.2	0.0	?
50	C/C(CC(=O)Nc1cccc(C(F)(F)F)c1)=N\NC(=O)c1ccncc1	-11.4	.	0.6	5712
51	CCOc1ccc(N=C(/C(C(=O)C(=O)N2CCOCC2)=C(\O)c2ccccc2)c2ccccc2)cc1	-26.0	5.3	3.7	2443
52	COc1cccc(OC)c1OCCN1CCN(C(=O)c2ccco2)CC1	-25.4	-0.8	-6.2	3818
53	OCCCc1nc2ccccc2n1CCc1ccccc1	-6.7	0.2	1.7	10669
54	CC(NC(=O)c1ccccc1Cl)NC(=O)c1ccccc1Cl	-5.1	-2.1	4.1	3080
55	COc1ccc(OCCCC(=O)Nc2ccc(N3CCOCC3)cc2)cc1	-18.3	-0.8	-4.6	1684
56	O=C(OCc1ccc2c(c1)OCO2)c1ccc(S(=O)(=O)N2CCCC2)cc1	-14.4	-7.2	3.4	3018
57	CCOC(=O)CCCNC(=O)COc1ccccc1C#N	-15.6	-0.6	-1.4	4061
58	O=C(CN1C(=O)NC2(CCc3ccccc32)C1=O)Nc1cccc(F)c1 (configuration not stated)	-22.2	-1.9	1.5	3959

entry	Mtb hypoxia inh	Mtb hypoxia inh growth	Sa RN4220 lethal
46	-8.2	-3.4	2.2
47	13.8	-0.3	5.1
48	7.2	-1.0	2.1
49	4.8	-2.5	6.3
50	.	.	.
51	5.4	5.8	3.3
52	-89.1	-31.5	-0.8
53	7.7	-0.8	13.8
54	14.3	1.3	3.2
55	13.6	-2.8	0.2
56	-0.3	1.9	-1.2
57	1.7	2.7	6.7
58	-11.3	-6.4	0.9
